Source: PubChem BioAssay
2A Renilla: Primary qHTS Assay for Foot and Mouth Disease Virus Antivirals against NCGC Sytravon and CBC Compound Libraries: Renilla Luciferase Signal; 0.32% of 120,000 active; Potency, µM (top dose mostly 57.5 µM), for the others: at the top dose signal change, negative = less light; HEK cells with a luciferase reporter of 2A StopGo recoding; active means well fitted falling curve with a large enough effect; inconclusive means small, poorly fitted or top-dose-only effect; inactive means no such curve, though single readings can be large or run the other way; further: nearly all actives have a fitted effect of over 55% in size; overnight with compound
StopGo FLuc: Primary qHTS Assay for Foot and Mouth Disease Virus Antivirals against NCGC Sytravon and CBC Compound Libraries: Firefly Luciferase Signal | HEK cells with a luciferase reporter of 2A StopGo recoding | Potency, µM (titrated, usually from 57.5 µM), inactives show at the highest dose signal change, negative = less light | 0.23% of 120,000 active | AID 1745856, 2022; active = well fitted falling curve with a large enough effect; inconclusive = small, poorly fitted or top-dose-only effect; inactive = no such curve, though single readings can be large or run the other way; further: nearly all actives have a fitted effect of over 60% in size; overnight with compound
An asterisk follows results filed as active; ? = inconclusive; [ ] = remark or other dose. On the % scale 0 is the no-effect control and ±100 the full control effect; potency means the concentration at half of the fitted maximal effect. The list is partial; the hit share may differ from the screen's.

Values run as follows: StopGo FLuc, 2A Renilla
- Cc1cc(Cl)nc2ccc([N+](=O)[O-])cc12
 : 2.6%, -1.2%
- CCOC(=O)c1ccc2c(c1)sc1nc(-c3ccc(OCC)cc3)cn12
 : 23.3%, -6.9%
- CC(=O)NNC(=S)Nc1ccc(C)cc1C
 : 18.3%, 1.2%
- COc1ccc(S(=O)(=O)Nc2ccc(O)c(Sc3nc4ccccc4s3)c2)cc1
 : 8.1%, 50.9%[activator]
- CCN1CCN(c2nc3ccccc3nc2NS(=O)(=O)c2ccccc2)CC1
 : -2.5%, -3.1%
- COc1cc(/C=C(/C#N)c2nc3ccccc3[nH]2)cc(Cl)c1OC
 : -37.1%, ?
- Cc1ccc(NC(=O)C(Cc2ccccc2)n2cnnn2)cc1F (stereo not given)
 : -14.5%, 44.6%[activator]
- CS(=O)(=O)Nc1cc(NC(=O)c2ccccc2SCC2CCCO2)ccc1F (stereo not given)
 : 30.4%[activator], 1.2%
- Cc1ccc2oc(C(=O)Nc3ncc(Cc4ccccc4)s3)cc(=O)c2c1
 : 5.6%, -7.7%
- CCCCCCCCCCCCCCCC[N+](C)(C)CC
 : ?, ?
- Cc1ccccc1NC(=O)CSc1nnc(C(C)N2C(=O)COc3ccccc32)n1C (stereo not given)
 : 4.9%, 3.5%
- COC(=O)c1ccc(COc2c(Cl)cccc2Cl)cc1
 : 4.2%, -6.6%
- Cc1ccc(C)c(NC(=O)C(Nc2ccc3oc(C)nc3c2)c2ccccc2)c1 (stereo not given)
 : 19.7%, 93.7%[activator]
- CCc1ccc(-c2nn(CC)c(=O)c3c2CCCC3)cc1S(=O)(=O)NC1CCCC1
 : 14.5%, 423.2%[activator]
- Cc1ccccc1NC(=O)CSc1nc(-c2ccccc2)cn1-c1ccccc1F
 : 4.3%, 29.0%
- COc1cc(CNC(c2ccccc2)c2ccccc2)cc(OC)c1
 : 0.0%, 21.9%[1.06 µM]
- CN(C)C(=O)c1ccc(CNC(=O)c2ccccc2CSc2nc3ccccc3o2)cc1
 : 10.4%, 135.4%[activator]
- O=C(Nc1nnc(S(=O)(=O)N2CCc3ccccc32)s1)c1cccc(Cl)c1
 : -17.5%, ?
- CCOC(=O)C1CCN(C(=O)c2[nH]c3ccc(OC)cc3c2C)CC1
 : 0.0%, 13.6%
- O=C(CSc1nc2c([nH]c3ccccc32)c(=O)n1-c1cccc(Cl)c1)N1CCc2ccccc21
 : -6.5%, -3.7%
- c1ccc(N2CCN(c3nc(-c4cccnc4)nc4ccccc34)CC2)cc1
 : 13.2%, 2.5%
- O=C(c1ccccc1Cl)N(Cc1ccco1)c1ccccn1
 : -9.7%, 18.9%
- Cc1cccc(CC(=O)Nc2cccc(-c3nc4cccnc4s3)c2)c1
 : 87.7%[activator], 21.2%
- COc1cccc(C(=O)Nc2ccc3nc(N4CCC(C)CC4)cc(C)c3c2)c1
 : -7.8%, 1.6%
- COc1cccc(-n2cnnc2SC(C)C(=O)Nc2ccc(N3CCOCC3)cc2)c1 (stereo not given)
 : 0.7%, 5.4%
- Cc1cc2ccccc2n1CC(=O)N(Cc1ccccc1)C1CC1
 : 15.9%, 15.4%
- CCC(=O)c1ccc(OC(=O)c2ccc(OC)c(I)c2)cc1
 : ?, 3.2%[1.06 µM]
- CC(=O)Nc1ccc(NC(=O)c2cc(-c3cccnc3)nc3ccccc23)cc1
 : 47.1%[activator], 0.0%
- CC(=O)Oc1ccccc1C(=O)Oc1cccc(C)c1
 : 5.5%, 2.5%
- O=C(Nc1ccc(Br)cc1)c1ccc(F)c(S(=O)(=O)NC2CCCCCC2)c1
 : ?, -0.5%

Quoted at random: 6 records from the list.
Values run as follows: StopGo FLuc, 2A Renilla
- CCOC(=O)C1CCN(C(=O)c2[nH]c3ccc(OC)cc3c2C)CC1
 : 0.0%, 13.6%
- Cc1ccccc1NC(=O)CSc1nnc(C(C)N2C(=O)COc3ccccc32)n1C (stereo not given)
 : 4.9%, 3.5%
- COc1cc(/C=C(/C#N)c2nc3ccccc3[nH]2)cc(Cl)c1OC
 : -37.1%, ?
- O=C(CSc1nc2c([nH]c3ccccc32)c(=O)n1-c1cccc(Cl)c1)N1CCc2ccccc21
 : -6.5%, -3.7%
- Cc1cccc(CC(=O)Nc2cccc(-c3nc4cccnc4s3)c2)c1
 : 87.7%[activator], 21.2%
- Cc1ccc(NC(=O)C(Cc2ccccc2)n2cnnn2)cc1F (stereo not given)
 : -14.5%, 44.6%[activator]

Additional compounds
Values run as follows: StopGo FLuc, 2A Renilla
- COc1ccc(NC(=O)CN(C)C(=O)c2nn(-c3ccccc3)c3c2CCC3)cc1
 : 26.8%, 11.5%
- CCC(NC(=O)Nc1cc(OC)ccc1OC)c1c(-n2cccc2)sc2c1CCN(CC)C2 (stereo not given)
 : -16.0%, -3.8%
- CCOc1ccc(S(=O)(=O)[C@H]2CS(=O)(=O)C[C@@H]2N2CCC3(CC2)OCCO3)cc1
 : -4.5%, -1.6%
- Cn1c(=O)[nH]c(=O)c2c1nc(CN1CCN(Cc3ccccc3)CC1)n2CCCO
 : -7.1%, -13.1%
- O=S1(=O)c2c(cccc2N2CCSCC2)Oc2ccccc2CN1Cc1cn(Cc2ccc(F)cc2)nn1
 : 23.8%, 138.2%[activator]
- CN(C)C(=O)c1ccc(NC(=O)CN2CCCC2c2ccc(Cl)cc2)cc1 (stereo not given)
 : 27.4%, 4.3%
- CCOc1ccccc1NC(=O)COC(=O)c1cn(CC)c2nc(C)ccc2c1=O
 : -2.8%, -7.9%
- CCc1ccc(C(=O)Cc2cc3cccc(OC)c3oc2=O)cc1
 : 128.9%[activator], 0.0%
- Cc1ccc(NC(=O)Cn2nc(-c3ccco3)ccc2=O)cc1
 : 2.0%, -7.3%
- Cc1ccc(NC(=O)c2sc(-n3nc(C)c(Cc4ccc5c(c4)OCO5)c3C)nc2C)cc1C
 : 24.7%, 48.7%[activator]
- O=C(COc1ccc(Cl)cc1)N(Cc1ccco1)c1ccccn1
 : 58.1%[activator], 19.6%
- Cc1ccc(NC(=O)CSc2nc3ccccc3c3nc(CCc4c(C)n[nH]c4C)nn23)c(C)c1
 : -11.5%, -14.3%
- COCCOCCNC(=O)c1ccc2c(c1)NC(=O)CS2
 : 0.0%, 6.0%
- COc1ccc(-c2nc3ccccc3o2)cc1NC(=O)C(C)(C)Oc1ccc(Br)cc1
 : -4.4%, -10.4%
- CCCn1c(=O)c2c(nc(-n3nc(C)c(C)c3C)n2CCOC)n(C)c1=O
 : 11.2%, 2.7%
- COc1cccc(Cn2c(SCC(=O)N(C)c3ccccc3)nc3ccccc32)c1
 : ?, ?
- Cc1ccc(C(=O)Nc2ccccc2)cc1S(=O)(=O)Nc1ccccc1
 : 2.6%, 190.3%[activator]
- Cc1oc(-c2ccccc2)nc1CC(=O)Nc1ccc(F)c(F)c1F
 : 30.7%[activator], 102.1%[activator]
- Cc1ccc2c(c1)[C@H]1OCCC[C@H]1C(c1ccc(O)c(Br)c1)N2 (stereo not given in full)
 : -7.0%, -9.7%
- COc1ccc(OC)c(CCNC(=O)CC(C)(C)C)c1
 : 8.0%, 22.3%
- COc1ccccc1NC(=O)COC(=O)c1nn(C)c(=O)c2ccccc12
 : -6.2%, -9.2%
- O=C(COc1ccc2c(=O)c(-c3ccccc3Cl)coc2c1)Nc1ccccc1Cl
 : 18.0%, 5.7%
- Cc1ccccc1-c1ccc2ccccc2n1
 : 108.9%[activator], 10.9%
- CN(C(=O)CSc1nc(CN2CCOCC2)nc2ccccc12)C1CCS(=O)(=O)C1 (stereo not given)
 : -4.0%, -10.3%
- Cc1occc1-c1nc(-c2ccc(Cl)cc2)no1
 : 0.0%, 15.7%
- CCC(C)n1c(=N)c(S(=O)(=O)c2ccc(C)cc2)cc2c(=O)n3cc(C)ccc3nc21 (stereo not given)
 : -8.5%, 1.5%
- CC(=O)c1ccc(N2CCN(S(=O)(=O)c3ccc(-c4cc(C(F)(F)F)on4)s3)CC2)cc1
 : -21.6%, -19.3%
- CCc1ccc(OCC(=O)Nc2cc(-c3ccc(C)cc3)no2)cc1
 : 24.5%, -8.2%
- NC(=O)c1ccc(NC(=O)c2cn(Cc3ccccc3)nc2-c2ccc(Cl)cc2)cc1
 : ?, ?
- COc1cccc(-c2ccc3nnc(SCC(=O)N4CCCc5ccccc54)n3n2)c1
 : -1.0%, 9.2%
- CCc1cccc(C)c1NC(=O)c1cnc2ccccc2n1
 : 66.2%[activator], -6.1%
- CCN(Cc1ccccc1)C(=O)c1cc2cc(OC)ccc2oc1=O
 : 2.6%, 10.8%
- Cn1cnnc1Sc1nc2c(c(=O)n(C)c(=O)n2C)n1Cc1ccc(F)cc1
 : -2.3%, -5.1%
- O=C(NCC(=O)N1CCCC1)c1n[nH]c(=O)c2ccccc12
 : 17.9%, 4.7%
- CC(CCN1CCC(C(O)(c2ccccc2)c2ccccc2)CC1)Oc1ccc(OC(F)(F)F)cc1 (stereo not given)
 : -25.5%, ?
- CC/C=C(/C)C(=O)NCc1sccc1C
 : 0.4%, 17.5%
- O=C(Nc1cn[nH]c1)c1cc[n+]([O-])cc1
 : -3.0%, 5.7%
- CC(C)NC(=O)CCn1nc(-c2ccc(Cl)cc2)c2ccccc2c1=O
 : -6.3%, -7.2%
- CCCNC(=O)C1CCC(Cn2c(=O)c3sccc3n(CC(=O)NCc3cccc(OC)c3OC)c2=O)CC1 (stereo not given)
 : 10.9%, 1.3%
- C=CCNc1nc(C(=O)OC(C)C(=O)Nc2ccc(NC(C)=O)cc2)cs1 (stereo not given)
 : 7.0%, -4.1%
- COc1ccc(NC(=O)C2CCCN(S(=O)(=O)c3c(C)[nH]c(=O)[nH]c3=O)C2)cc1OC (stereo not given)
 : ?, -11.9%
- Cc1nn(C)c2c1c(C(F)(F)F)cc(=O)n2CC(=O)NCc1ccccc1Cl
 : -21.7%, -7.6%
- Cc1ccc(OCC(=O)N2CCN(CCc3ccncc3)CC2)cc1
 : 12.5%, -15.0%
- COc1ccccc1CNC(=O)Cn1c(=O)nc(-c2ccccc2F)c2cc(Cl)ccc21
 : 2.3%, -7.5%
- CSc1cccc(NC(=O)CC(C)(C(=O)O)c2ccccc2)c1 (stereo not given)
 : 22.0%, 8.9%
- C/C(=N\NC(=O)C(C)C)c1ccccc1
 : 11.0%, -1.9%
- COc1ccc(OC)c(NC(=O)Cn2ccc3c(Cl)cccc32)c1
 : 8.9%, 3.3%
- CCOC(=O)CNC(=O)c1cc2c(=O)oc3ccccc3c2s1
 : -12.3%, -11.1%
- Cc1ccc(OCCSc2nnc(COc3ccccc3Cl)n2C)cc1
 : 0.0%, -3.7%[1.06 µM]
- CCN(CC(=O)NC(C)(C)C)c1nc(-c2cccs2)nc2ccccc12
 : 5.8%, -0.2%
- Cc1nc(SCc2ccccc2)[nH]c(=O)c1CCC(=O)N1CCN(C(=O)C2CC2)CC1
 : -11.0%, -10.5%
- Fc1ccc(SCc2ccnc(Cl)c2)cc1
 : 21.9%, 2.1%
- COc1ccc2c(C)c(CCC(=O)NCc3ccc(S(=O)(=O)N(C)C)cc3)c(=O)oc2c1
 : -6.4%, -15.8%
- Cc1ccc(NC(=O)CN2C(=O)C3(SCC(=O)N3c3cccc(Cl)c3)c3ccccc32)cc1C (stereo not given)
 : ?, 12.6µM*
- COc1cccc(-c2ccc(C#N)c(SCC(=O)Nc3ccc(C(C)=O)cc3)n2)c1
 : 41.5%[activator], 23.3%
- COc1cc(NC(=O)C2(n3cnnn3)CCCCC2)cc(OC)c1
 : -5.9%, -11.0%
- CCC(C)NC(=O)CSc1nc2ccccc2o1 (stereo not given)
 : 9.4%, -6.8%
- CN(C)CCCn1ccc2c(cnc3c(-c4ccc(Cl)cc4)cnn32)c1=O
 : 67.4%[activator], 5.0%
- CCc1ccc(Sc2cc(C(=O)NCc3ccccc3OC)c3ccccc3n2)cc1
 : -7.0%, 110.3%[activator]
- COc1ccc(-c2nc3ccc(C(=O)NCc4ccccc4)cc3nc2-c2ccc(OC)cc2)cc1
 : -5.3%, 27.8%

Next part.
Values run as follows: StopGo FLuc, 2A Renilla
- CCOc1ccc(NC(=O)Cn2cc(C(=O)c3ccc(CC)cc3)c(=O)c3cc(C)ccc32)cc1
 : 0.6%, -5.3%
- COc1ccc(-c2cn3c(n2)sc2cc(C(=O)NCCC4=CCCCC4)ccc23)cc1
 : 76.7%[activator], 7.4%
- COc1cc(NS(=O)(=O)c2ccc3[nH]c(=O)[nH]c3c2)cc(OC)c1
 : -1.7%, 146.1%[activator]
- O=C(COc1ccccc1-c1nc(-c2ccccc2)no1)Nc1ccccc1[N+](=O)[O-]
 : -5.5%, -14.6%
- COc1ccc(C(C)=O)cc1CSCc1coc(-c2ccc(F)cc2)n1
 : ?, ?
- Cc1cc(NC(=O)c2cc(-c3ccc(Cl)cc3)on2)nn1Cc1ccc(Cl)cc1
 : -6.9%, -20.6%
- Cc1ccc(CSc2nnc(-n3c(=O)c(C#N)cc4c(=O)n5cccc(C)c5nc43)s2)cc1
 : -10.9%, -10.7%
- O=C(CN1CCN(C(=O)c2cc(=O)[nH]c3ccccc23)CC1)NCc1ccccc1
 : -6.4%, -12.4%
- Cc1ccccc1C(=O)N(C)[C@H]1C[C@H]2c3[nH]c4c(-c5ccccc5)cccc4c3CCN2C[C@H]1[C@H](C)O
 : -1.8%, -8.2%
- CC(C)Sc1nnc([C@@H](N)Cc2c[nH]c3ccccc23)o1
 : 38.0%[activator], -8.8%
- O=C(NCc1ccccc1Cl)c1ccccc1NC(=O)c1nsc2ccccc12
 : 144.4%[activator], -2.5%
- COc1ccc(NC(=O)c2nc(S(=O)(=O)Cc3ccccc3)ncc2Cl)cc1
 : ?, ?
